# High-throughput results (PubChem BioAssay)
# PrP UTR inh: suppresses PrP 5' UTR mRNA reporter expression | cell-based PrP 5' UTR mRNA reporter, plate reader | inhibition, % (test concentration not listed) | 340,000 tested, 0.35% active;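 active means every replicate at 50% or more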;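 further: 0 = median of the neutral control wells; tested in H4 reporter cells; numbers are from one replicate; inactives centre near -14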
# RN4220 kill: S. aureus RN4220 growth inhibition; OD600, 16 h; inhibition, % (test concentration not listed); 330,000 tested, 0.33% active; AID 1259311;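 active means z-score of -3 or lower and OD600 up to 0.18 on both plates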;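 further: plate controls were untreated cells for no effect and reference antibiotic for full effect; stock transfer was 100 nL into about 80 µL; one replicate is shown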
# Autofluor counter: counter-screen for toxin protease inhibitors: compound fluorescence | compound autofluorescence counterscreen, microsphere flow cytometry; hits give high values | fluorescence intensity (concentration not given with the values) | 360,000 tested, 3.1% active | AID 624483;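 active means at least 3 SD above the mean of all compounds, about 16000 in these data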;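 further: 100 nL of 1 mM stock went into each well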
# Mtb hypoxia rep: reduces hypoxia-regulated biosensor signal in M. tuberculosis; M. tuberculosis hypoxia-regulated fluorescent reporter, fluorescence; fluorescence inhibition, % (no concentration beside the values); 300,000 tested, 0.1% active;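 active means 35 to 45% if threefold the growth effect, above 45% if 1.5-fold the growth effect; inactive means the rest, general growth blockers included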;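 further: wells of about 50 µL received 100 nL stock; 0% = vehicle wells and 100% = reference inhibitor wells; whole bacteria with a GFP reporter of the hypoxia response; strong numbers were not always called active; many hits fall short of the cut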
# BJeLR viability: kills HRASV12-expressing BJeLR cells; BJeLR (HRASV12) viability, CellTiter-Glo ATP luminescence, 48 h; reference of the scale not given here; inhibition, % (test concentration not listed); 300,000 tested, 0.17% active; AID 1554;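 active means replicate mean above 50%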;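 further: 50 nL library stock added to about 25 µL; numbers are from one replicate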
# Sa ugtP lethal: growth inhibition of S. aureus ugtP deletion strain; 330,000 tested, 0.54% active; growth inhibition, % (test concentration not listed); S. aureus RN4220 ugtP deletion, OD600 growth, 16 h; some inactives read as strong as hits;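 active means z-score under -3 and OD600 up to 0.15 on both plates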;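 further: plate controls were untreated wells for no effect and antibiotic for full effect; wells of about 80 µL received 100 nL stock; the first replicate is given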
# Mtb hypoxia rep growth: further read-out of Mtb hypoxia rep, marked with its call; growth inhibition, %; measured here: M. tuberculosis growth (absorbance);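 0% = vehicle and 100% = reference antibiotic; read after six days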
# * = called active by the depositor; . = not tested or not shown. Outcome played no part in choosing rows; about 4% have a hit in one of these screens.
SMILES,PrP UTR inh,RN4220 kill,Autofluor counter,Mtb hypoxia rep,Mtb hypoxia rep growth,BJeLR viability,Sa ugtP lethal
CN(C)c1ccc(NC(=O)/C=C/c2ccccc2Cl)cc1,-65,.,2003,.,.,16,.
O=C(NCc1ccccc1F)C12CC3CC(CC(C3)C1)C2,2,4.2,.,20,20,-9,4
CSc1ccccc1C(=O)NC1CCCCCC1,-2,2.0,20204*,8,11,7,17
Cc1nn(-c2ccccc2)c(N)c1Sc1cccc([N+](=O)[O-])c1,-19,8.6,2463,-9,6,-1,8
Cc1noc(C)c1COc1ccccc1C(=O)NCc1ccco1,0,5.6,9027,5,6,.,14
CC(C)c1ccc(NC2CCCN(C(=O)CCc3cnn(C)c3)C2)cc1 (configuration not stated),-6,3.4,6044,7,-1,-5,-6
Cc1nc(NCCc2ccc(S(N)(=O)=O)cc2)c2c3c(sc2n1)CCC3,0,6.6,10452,3,1,19,-5
O=C(CSc1ccccc1)Nc1ccc(-c2nc3ccccc3[nH]2)cc1,-118,.,2366,.,.,19,.
CCOC(=O)Cc1csc(NC(=O)c2csc3c2CCCC3)n1,-17,0.5,10886,2,4,3,-3
Cc1ccncc1CNC(=O)c1ccccc1,-28,2.8,4334,10,3,.,1
COc1cc(/C=C/C(=O)NC(=O)c2ccccc2O)ccc1OC(C)=O,-40,5.8,6186,.,.,-8,-6
CCC(=O)Nc1c(C)n[nH]c1C,-7,4.6,1930,4,2,3,4
C=CCOc1c(CNc2cccc(C(=O)O)c2)cccc1OC,-25,-3.8,2535,.,.,3,6
COC(=O)c1cn(NC(=O)c2ccc([N+](=O)[O-])c(C)c2)c(=O)c2ccccc12,-2,2.2,4635,5,-1,5,4
O=C(O)c1ccc2c(c1)SC1=NS(=O)(=O)CCN12,-7,10.0,4673,4,-5,3,4
O=C(OCc1ccccc1)N1CCc2ccccc21,-71,6.4,3615,14,6,9,15
CCc1c(C)sc(NC(=O)C2CC2)c1C(=O)OC(C)C,-14,-2.0,2128,-7,14,-36,29
O=C(O)CNC(=S)N(Cc1ccc(F)cc1)C1CCCCC1,-23,-2.2,4243,-10,11,2,-13
COC(=O)c1ccc(CNC(=O)CCNC(=O)c2ccco2)cc1,0,-0.7,.,8,14,.,-1
Cc1ccc(Cn2nnnc2CN2CCC(O)(c3ccccc3F)CC2)cc1,-19,5.1,10020,13,9,-4,-3
CN1CCC(=O)N(CCSc2ccccc2)CC1,-34,6.3,4130,21,4,3,8
O=C(COC(=O)c1ccc(Cl)cc1[N+](=O)[O-])NC(=O)c1ccccc1,-43,0.6,7441,-1,-4,2,4
O=C(Nc1ccc(CN2CCOCC2)cc1)c1ccc(-c2cc(Cl)ccc2Cl)o1,-12,-11,4822,5,4,-4,-27
CC1CCN(C(=O)C(C)c2ccc([N+](=O)[O-])cc2)CC1 (configuration not stated),-15,3.0,2251,9,12,5,3
Cc1ccc(S(=O)(=O)N2CCN(Cc3nc4sc5c(c4c(=O)[nH]3)CCCC5)CC2)cc1,-3,2.8,9389,3,-2,10,6

# A few values from above.
# Mtb hypoxia rep growth, Cc1nc(NCCc2ccc(S(N)(=O)=O)cc2)c2c3c(sc2n1)CCC3 reads 1
# Mtb hypoxia rep growth, CCOC(=O)Cc1csc(NC(=O)c2csc3c2CCCC3)n1 reads 4

# The main list resumes with the 4 entries that preceded the break.
SMILES,PrP UTR inh,RN4220 kill,Autofluor counter,Mtb hypoxia rep,Mtb hypoxia rep growth,BJeLR viability,Sa ugtP lethal
O=C(COC(=O)c1ccc(Cl)cc1[N+](=O)[O-])NC(=O)c1ccccc1,-43,0.6,7441,-1,-4,2,4
O=C(Nc1ccc(CN2CCOCC2)cc1)c1ccc(-c2cc(Cl)ccc2Cl)o1,-12,-11,4822,5,4,-4,-27
CC1CCN(C(=O)C(C)c2ccc([N+](=O)[O-])cc2)CC1 (configuration not stated),-15,3.0,2251,9,12,5,3
Cc1ccc(S(=O)(=O)N2CCN(Cc3nc4sc5c(c4c(=O)[nH]3)CCCC5)CC2)cc1,-3,2.8,9389,3,-2,10,6
Cc1c(NC(=O)CCC(=O)N2CCCCC2)c(=O)n(-c2ccccc2)n1C,-34,2.2,4225,.,.,0,8
CCC(=O)c1ccc(OCC(=O)Nc2ccc3c(c2)OCCO3)cc1,-29,2.1,2812,8,6,.,10
COc1ccc(Cl)cc1S(=O)(=O)N1CCC(O)(c2ccc(Cl)cc2)CC1,-11,3.3,4325,-5,1,-4,6
COc1ccc(CNC(=O)C2CCN(S(=O)(=O)c3c(C)noc3/C=C/N(C)C)CC2)cc1,6,1.8,6142,-6,-3,9,12
CC(Oc1ccc(Cl)cc1Cl)C(=O)N(Cc1ccco1)C1CCS(=O)(=O)C1 (configuration not stated),-15,-11,3375,-2,-4,-2,-1
Cn1c(SCC(=O)Nc2ccc(N3CCOCC3)c(Cl)c2)nnc1C(O)c1ccccc1 (configuration not stated),-13,1.9,7803,3,9,2,-2
O=c1[nH]c(O)c(N=Nc2ccc(SC(F)F)cc2)c(=O)[nH]1,-44,0.9,4875,8,12,6,9
Cn1c(=O)[nH]c(=O)c2c1nc(N1CCCCC1)n2CCCSc1nc2ccccc2s1,-8,2.8,4159,.,.,4,4
CNC[C@@H](CC1CCCCC1)NC[C@H](CC(C)C)NCCc1cccc(C(F)(F)F)c1,13,.,4091,.,.,54*,.
COc1ccccc1C(=O)NC(C)C(c1cccs1)N1CCN(C)CC1 (configuration not stated),-28,-2.3,23363*,2,0,6,1
Cc1cc(C)c(NC(=O)Cn2ncc3ccccc32)c(C)c1,-26,3.2,4427,14,8,0,6
CCn1c(C)nc2cc(S(N)(=O)=O)ccc21,-18,-0.9,3075,0,3,-5,-4
O=C1Nc2ccc(Br)cc2C(c2ccc(Cl)cc2)=NC1O (configuration not stated),-19,5.7,3820,2,-1,-3,-2
CNC(=O)c1nnn(Cc2ccccc2)c1NC(=O)C(F)(F)F,-15,-0.5,3225,.,.,-4,3
C/C=C/C=C\C(=O)Nc1cccc(C2=NOC3(C2)C[C@H](C(N)=O)N(C(=O)/C=C/C)C3)c1 (some centres not stated),-23,.,3489,.,.,-10,.
CCOc1ccc(-n2c(-c3ccc(OC)cc3)c[n+]3c2CCCCC3)cc1,4,-2.7,2008,.,.,16,3
COc1ccc(CCCc2n[nH]c(=S)o2)cc1,-12,0.1,3378,.,.,9,1
O=C(O)CSc1ccc(Oc2ccc(SCC(=O)O)cc2)cc1,-24,8.0,4884,10,3,-6,8
O=C(CCc1nnc2n(Cc3ccc(F)cc3)c(=O)c3ccccc3n12)NCCN1CCOCC1,1,-1.1,4235,.,.,0,-7
CN(C)CCCNC(=O)C(=O)Nc1cc2c3c(c1)CCC(=O)N3CCC2,-27,-0.7,5187,-3,-4,1,1
Cc1cc(/C=N\NC(=O)CC(=O)NC2CCCCC2)c(C)n1-c1ccc(Cl)cc1,-14,.,10411,.,.,1,.
Cc1cc(C)n(-c2cc(N3CCN(S(=O)(=O)c4ccc(Cl)cc4)CC3)ccc2[N+](=O)[O-])n1,-13,-1.6,2176,-3,7,25,-10
Cc1ccc(Cl)cc1N1CCN(C(=O)COc2ccc3c(c2)CCC3)CC1,-12,0.4,2834,-5,6,-3,3
COc1ccccc1NC(=O)c1nnn(Cc2ccccc2)c1NC(=O)C(F)(F)F,-9,.,8810,.,.,1,.
O=C(c1cccc(NS(=O)(=O)c2ccccc2)c1)N1CCN(c2ccccc2)CC1,-12,-0.9,6011,8,-3,2,5
# (list continues)
SMILES,PrP UTR inh,RN4220 kill,Autofluor counter,Mtb hypoxia rep,Mtb hypoxia rep growth,BJeLR viability,Sa ugtP lethal
CC1Sc2ccc(S(=O)(=O)N3CCC(C(=O)NCc4ccc(Cl)cc4)CC3)cc2NC1=O (configuration not stated),-3,-2.9,5514,4,15,0,-2
CCN1CCc2nc(NC(=O)c3cc(F)c(F)cc3Cl)sc2C1,-26,2.3,4388,7,1,2,18
O=C(Cn1c(=O)c(C(F)(F)F)nc2ccccc21)N1CCC2(CC1)OCCO2,.,6.5,8071,3,5,-8,7
CCc1noc(C)c1C(=O)NCCc1ccc(F)cc1,0,-0.7,.,-5,-2,-8,2
Cc1ccc2nc(C(Cl)(Cl)Cl)nc(NN=Cc3ccc([N+](=O)[O-])cc3)c2c1,.,0.0,.,16,4,.,-10
COC(=O)Cn1c(O)c(N=NC(=O)CNC(=O)COc2cccc(C)c2)c2ccccc21,-10,3.2,6055,-4,2,16,-4
NC(=O)c1sc2nc3c(cc2c1N)CCCCCC3,-12,7.4,3802,-6,-3,-17,19
Cn1cc([N+](=O)[O-])c(C(=O)NNC(=O)c2ccc([N+](=O)[O-])cc2Cl)n1,-19,3.6,4347,4,6,17,3
CCOC(=O)c1ccccc1NC(=O)Cn1cnc2c(oc3ccccc32)c1=O,-31,-0.2,3798,3,6,-8,-2
O=C(c1ccccc1)c1cccc2ccccc12,-16,1.9,3976,7,2,.,19
Cc1noc(C)c1C(=O)N1CCN(C(=O)c2sc3cc(Cl)ccc3c2Cl)CC1,-45,4.3,18980*,1,4,-13,-2
O=C(Nc1ncc2c(n1)-c1ccccc1OC2)c1ccc(Cl)cc1,-33,9.1,8430,17,8,8,-12
O=C(NNC(=O)C1CCN(Cc2cccc(F)c2)CC1)c1cccc(Cl)c1,-4,-4.1,2410,.,.,-5,-2
O=C(CSc1nc2ncc(Cl)cc2[nH]1)NCC(=O)Nc1ccc(F)c(F)c1F,-26,2.5,4964,-8,-2,-1,9
CCOc1ccc(S(=O)(=O)N2CCc3cc(OC)c(OC)cc3C2)cc1,-26,3.7,9562,-11,2,-11,6
COc1ccccc1C(=O)NNC(=O)c1ccccc1Br,-54,2.2,4383,0,-3,-14,4
O=C(O)CC1c2ccc(C(F)(F)F)cc2S(=O)(=O)N1C1CCCCC1 (configuration not stated),.,4.1,.,15,8,.,3
COc1ccc2cc3cc(C(=O)NCc4cccnc4)oc3nc2c1,-24,0.6,2405,-1,-1,-3,-9
COc1ccc2c(c1)cc1n2CCN=C1NN,-25,0.4,4612,-9,9,0,-1
O=C(NCc1ccccc1)c1ccc(COCC(F)(F)F)o1,-3,5.7,9582,-3,6,-1,4
Cn1nnnc1NCc1cccc(Cl)c1,-19,-0.2,3983,17,6,6,2
CC(=O)c1cc(C#N)c(SCc2ccccc2C#N)nc1C,-6,18,2737,-6,-3,5,-13
Cc1ccc2nc(NC(=O)C3CCN(S(=O)(=O)c4cccs4)CC3)sc2c1,-30,-5.3,9801,-12,-1,-11,-26
CCC(CC)c1nc(C(N)=O)c2[nH]c(=O)n(-c3ccc(OC)c(OC)c3)c2n1,-27,6.8,4188,5,4,-15,-5
Cc1ccc(S(=O)(=O)C2CS(=O)(=O)CC2O)cc1 (configuration not stated),-16,4.8,5937,10,2,-2,14
# The list continues.
SMILES,PrP UTR inh,RN4220 kill,Autofluor counter,Mtb hypoxia rep,Mtb hypoxia rep growth,BJeLR viability,Sa ugtP lethal
CCCc1cc(=O)[nH]c(SCC(=O)Nc2c(C)n(C)n(-c3ccccc3)c2=O)n1,-19,2.8,3551,3,4,.,-3
Cc1ccc(-n2nc(C)c3c(C)c(CCC(=O)O)c(C)nc32)cc1C,3,12,4178,-1,-3,4,-6
Fc1cccc(COc2ccccc2CNc2ccccc2)c1,-2,-4.3,2098,13,5,0,17
FC(F)(F)c1cc(CCN2CCNCC2Cc2ccccc2)cc(C(F)(F)F)c1 (configuration not stated),.,-8.8,.,6,4,.,-5
COc1ccc(/C=N/NC(=O)c2[nH]ncc2Br)c(OC)c1,-36,.,7795,.,.,-1,.
Cc1nnc(N2C(=O)C(=O)/C(=C(/O)c3ccc4c(c3)CC(C)O4)C2c2ccccc2F)s1 (configuration not stated),-38,2.3,.,8,1,-6,-3
Cc1ccccc1-c1nc(CS(=O)CC(=O)NCc2ccccc2)c(C)o1 (configuration not stated),-9,-12,5922,5,4,-5,12
O=C1NC2(CCCCCC2)Cc2ccccc21,-19,5.3,8801,10,3,-19,12
O=c1[nH]cnc2cc(-c3ccc(Br)cc3)sc12,-80,7.2,6405,-3,-4,-7,4
O=C1Nc2ccccc2C1=Nc1sc2c(c1C(=O)NCCc1ccccc1)CCCC2,.,8.3,.,3,5,.,-17
Cc1ccc(NC(=O)CN(C)S(=O)(=O)c2cccc3cccnc23)cc1C,-7,3.2,5511,4,-4,2,6
Cn1nc(C(=O)NC2CCCCCC2)ccc1=O,-9,1.3,22596*,19,20,-1,2
O=C(CCCn1nnnc1CN1CCOCC1)N1CCN(c2ccccc2F)CC1,-39,-0.4,5582,11,-14,-5,5
CCn1ncc(Cl)c1C(=O)NC(=S)Nc1ccccc1Br,-4,.,5814,.,.,2,.
